VDR inhibitor: blocks the human vitamin D receptor | P11473 | VDR-SRC2-3 peptide fluorescence polarization, 2 h | Potency, µM, for inactives: max response, negative = inhibition, hits mostly inhibitors | 0.93% of 400,000 active | AID 504847; active = well fitted inhibition curve with a large enough effect; inconclusive = small, poorly fitted or top-dose-only effect, or another doubt; inactive = no such curve, though single readings can be large or run the other way; note: series mostly up to about 120 µM
Target sequence (P11473 whole entry, looked up): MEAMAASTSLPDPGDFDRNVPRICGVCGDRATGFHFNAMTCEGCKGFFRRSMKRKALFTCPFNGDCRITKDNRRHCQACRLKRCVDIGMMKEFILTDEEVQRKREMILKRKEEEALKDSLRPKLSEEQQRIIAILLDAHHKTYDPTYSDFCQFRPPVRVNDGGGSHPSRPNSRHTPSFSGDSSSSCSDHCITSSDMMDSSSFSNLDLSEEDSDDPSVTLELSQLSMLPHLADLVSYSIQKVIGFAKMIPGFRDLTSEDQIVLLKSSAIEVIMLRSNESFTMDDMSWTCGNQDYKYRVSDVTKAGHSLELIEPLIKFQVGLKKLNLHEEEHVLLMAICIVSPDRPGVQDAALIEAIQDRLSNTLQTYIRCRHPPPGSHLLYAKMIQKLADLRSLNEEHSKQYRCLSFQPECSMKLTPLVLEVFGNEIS
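Two reagent solutions held at 4 deg C in the dark were dispensed, compounds pinned at 23 nl, and the mixture incubated 2 h at room temperature. Read-out: fluorescence polarization of VDR–SRC2-3 peptide binding.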
Numbers without * were called inactive; & = joins results of further samples. % is set by controls: 0 for no effect and ±100 for the full control effect; potency is the fitted concentration of half-maximal effect.

Preview, 13 compounds:
`O=C(NC(=S)NN1CCOCC1)c1cc(Br)ccc1Cl` gave VDR inhibitor -9%.
`COc1cccc(CNC(=O)CN2c3cccc4cccc(c34)S2(=O)=O)c1` gave VDR inhibitor -10%.
ClCc1ncc(-c2ccc(Cl)cc2)o1 was read as VDR inhibitor -2%.
`Cc1ccccc1S(=O)(=O)Nc1ncnc2ccccc12` gave VDR inhibitor 4%.
Screening CC(=O)c1ccc(-c2ccc(C(=O)Nc3nc(C)c(C(C)=O)s3)o2)cc1 returned VDR inhibitor 1%.
CCN(CC)CCNC(=O)c1ccc2c(=O)n(C3CCCC3)c(=S)[nH]c2c1 was read as VDR inhibitor 0%.
For CC(=O)c1sc(NC(=O)CCS(=O)(=O)c2ccc(Cl)cc2)nc1C the results were VDR inhibitor 2%.
`CCCCCN(C(=O)NC(=O)Nc1nncs1)S(C)(=O)=O` gave VDR inhibitor 0%.
`NC(=S)NNc1c(F)c(F)c(F)c(F)c1F` gave VDR inhibitor -3%.
For O=C1CN(C(=S)NC(=O)c2ccccc2[N+](=O)[O-])CCN1 the results were VDR inhibitor 17%.
`Cc1[nH]cnc1C(=O)N/N=C/c1ccc([N+](=O)[O-])s1` gave VDR inhibitor -17%.
COc1cc(NC(=O)C2CCCN(S(=O)(=O)c3cccc4nsnc34)C2)cc(OC)c1 (stereo not drawn) was read as VDR inhibitor -8%.
NC1=NC(c2ccccc2)CC(=O)N1 (stereo not drawn) was read as VDR inhibitor 21%.

Results (from the top)
`O=C(NC(=S)NN1CCOCC1)c1cc(Br)ccc1Cl` gave VDR inhibitor -9%.
`COc1cccc(CNC(=O)CN2c3cccc4cccc(c34)S2(=O)=O)c1` gave VDR inhibitor -10%.
ClCc1ncc(-c2ccc(Cl)cc2)o1 was read as VDR inhibitor -2%.
`Cc1ccccc1S(=O)(=O)Nc1ncnc2ccccc12` gave VDR inhibitor 4%.
Screening CC(=O)c1ccc(-c2ccc(C(=O)Nc3nc(C)c(C(C)=O)s3)o2)cc1 returned VDR inhibitor 1%.
CCN(CC)CCNC(=O)c1ccc2c(=O)n(C3CCCC3)c(=S)[nH]c2c1 was read as VDR inhibitor 0%.
For CC(=O)c1sc(NC(=O)CCS(=O)(=O)c2ccc(Cl)cc2)nc1C the results were VDR inhibitor 2%.
`CCCCCN(C(=O)NC(=O)Nc1nncs1)S(C)(=O)=O` gave VDR inhibitor 0%.
`NC(=S)NNc1c(F)c(F)c(F)c(F)c1F` gave VDR inhibitor -3%.
For O=C1CN(C(=S)NC(=O)c2ccccc2[N+](=O)[O-])CCN1 the results were VDR inhibitor 17%.
`Cc1[nH]cnc1C(=O)N/N=C/c1ccc([N+](=O)[O-])s1` gave VDR inhibitor -17%.
COc1cc(NC(=O)C2CCCN(S(=O)(=O)c3cccc4nsnc34)C2)cc(OC)c1 (stereo not drawn) was read as VDR inhibitor -8%.
NC1=NC(c2ccccc2)CC(=O)N1 (stereo not drawn) was read as VDR inhibitor 21%.
`CCOC(=O)C1(Cc2cccc(OC)c2)CCN(Cc2cccc(OCC)c2O)CC1` gave VDR inhibitor -23%.
`O=C(COc1ccc(Cl)cc1Cl)NNC(=S)Nc1ccc(F)cc1` gave VDR inhibitor -9%.
`COc1ccc(C(=O)Nc2ccc(F)cc2F)cc1` gave VDR inhibitor -10%.
O=C1OCC(c2ccc(Cl)s2)=C1c1ccccc1[N+](=O)[O-] was read as VDR inhibitor 6%.
`CCN1CCN(c2ccc(NC(=O)c3ccc(OC)c(S(=O)(=O)N4CCCC4)c3)cc2)CC1` gave VDR inhibitor -4%.
Screening Cc1ccc(-n2c(=O)c3c(cnn3C)n(CC(=O)Nc3cccc(Cl)c3)c2=O)cc1 returned VDR inhibitor 0%.
`Cc1cccc(C(=O)NNC(=O)C2CCN(C(=O)OC(C)(C)C)CC2)c1` gave VDR inhibitor 23%.
Screening COc1ccc(C(NC(C)=O)c2cc(Cl)c3cccnc3c2O)cc1OC (stereo not drawn) returned VDR inhibitor 9%.
Screening CCCc1noc2c1/C(=N\O)CC(c1ccccc1)C2 (stereo not drawn) returned VDR inhibitor 4%.
CC[C@@H]1C(c2ccc(F)cc2)=NN(c2ccc(Br)cc2)[C@H]1C(=O)N1CCOC1=O was read as VDR inhibitor -8%&2%.
For O=C(O)CNC(=O)CCn1nnc2ccccc2c1=O the results were VDR inhibitor inconclusive.
`O=C(NNC(=O)c1ccccc1F)c1ccc(Cl)c(S(=O)(=O)N2CCOCC2)c1` gave VDR inhibitor 3%.
COc1ccc(C(=O)NC(=S)NNC(=O)CCc2ccccc2)cc1 was read as VDR inhibitor -3%.
Cc1cccc(N2CCN(C(=O)c3ccc(NC(=O)c4nsc5ccccc45)cc3)CC2)c1C was read as VDR inhibitor 4%.
For Cc1cccc(-n2c(SCC(=O)Nc3ccccc3Cl)nc3n[nH]c(C)c3c2=N)c1 the results were VDR inhibitor 1%.
For Cc1cc2c(cc1S(=O)(=O)N1CCC(C)CC1)OCC(=O)N2 the results were VDR inhibitor 6%.
For OC(c1ccc(Cl)cc1)c1nnc(-c2ccccc2)o1 (stereo not drawn) the results were VDR inhibitor -16%.
Screening C=CCNCCCCOc1cccc(Br)c1 returned VDR inhibitor -6%.
`CCc1nnc(NS(=O)(=O)c2ccc(NC(=S)NC(=O)/C=C/c3cccs3)cc2)s1` gave VDR inhibitor 6%.
O=C(Cc1ccc(Cl)cc1Cl)Nc1ccc(OC(F)F)c(Cl)c1 was read as VDR inhibitor -18%.
Cc1ccc(S(=O)(=O)CC(=O)NCc2ccccc2)cc1 was read as VDR inhibitor -4%.
CCN(CC)S(=O)(=O)c1ccc(OCC(=O)NC2CCS(=O)(=O)C2)c([N+](=O)[O-])c1 (stereo not drawn) was read as VDR inhibitor -13%.
`CC1=CCC2C(=O)N(c3ccc(OC(=O)c4ccco4)cc3)C(=O)C2C1` (stereo not drawn) gave VDR inhibitor -2%.

Brought forward from above: 2 compounds, then new ones.
CCN(CC)S(=O)(=O)c1ccc(OCC(=O)NC2CCS(=O)(=O)C2)c([N+](=O)[O-])c1 (stereo not drawn) was read as VDR inhibitor -13%.
`CC1=CCC2C(=O)N(c3ccc(OC(=O)c4ccco4)cc3)C(=O)C2C1` (stereo not drawn) gave VDR inhibitor -2%.
CC1CC=CC2C1C(=O)N(Cc1ccccc1)C2c1ccc(-c2ccoc2)cc1F (stereo not drawn) was read as VDR inhibitor inconclusive.
For CS(=O)(=O)Nc1ccc(-c2nnc3n2CCCCC3)cc1 the results were VDR inhibitor 3%.
Screening COc1ccc(-c2c(C#N)c(N)nc3c2CCc2ccccc2-3)cc1OC returned VDR inhibitor 0%.
CCOc1ccc(C(=O)/C=C/c2cn(CC(O)CN3CCCCCC3)c3ccccc23)cc1 (stereo not drawn) was read as VDR inhibitor 11%.
Screening Cc1ccc(C(=O)COC(=O)C(CC(C)C)NC(=O)C2CCC(C)CC2)cc1 (stereo not drawn) returned VDR inhibitor -9%.
For CCOc1cc(NC(=S)NCC(C)C)c(OCC)cc1NC(=O)c1ccco1 the results were VDR inhibitor -1%.
Screening Cc1ccccc1-c1nc(CS(=O)CC(=O)NC2CCCC2)c(C)o1 (stereo not drawn) returned VDR inhibitor -6%.
`CCOC(=O)C1=NNC(C(=O)O)C1c1ccccc1` (stereo not drawn) gave VDR inhibitor -7%.
For Oc1ccc(Br)cc1CN1CCCCCCC1 the results were VDR inhibitor 10%.
Screening Cc1ccc(NC(=O)CN(C)C(=O)c2ccc(C(F)(F)F)cc2)cc1 returned VDR inhibitor -12%.
For Nc1c(CO)nnn1-c1ccccc1 the results were VDR inhibitor -10%.
Screening CC(=O)c1cccc(NC(=O)CCc2nc3cccnc3n2Cc2cccs2)c1 returned VDR inhibitor inconclusive.
Screening CN(C)/C=C/C(=O)c1ccccc1 returned VDR inhibitor -7%.
C[C@@H](C(=O)NNC(=O)c1ccc(Cl)cc1)N1C(=O)C2CC=CCC2C1=O (stereo partly drawn) was read as VDR inhibitor -2%.
Screening O=C1CCC(C(=O)OCc2nnc(-c3ccccc3)o2)=NN1 returned VDR inhibitor -11%.
For CC(=O)c1ccc(N2CCN(S(=O)(=O)c3ccc(-c4cc(C)no4)s3)CC2)cc1 the results were VDR inhibitor -1%&6%.
Cc1c(Cl)cccc1NC(=O)c1ccc2c(c1)CCCN2S(C)(=O)=O was read as VDR inhibitor 8%.
Screening N#C/C(=C\c1c[nH]c2ccc(Br)cc12)c1ccccn1 returned VDR inhibitor -12%.
For CCCCOC(=O)c1ccc(NC(=O)c2cc(Cl)ccc2OC)cc1 the results were VDR inhibitor 14%.
Screening O=Cc1cccn1Cc1ccc(Cl)cc1Cl returned VDR inhibitor -7%.
Screening COc1ccc(S(=O)(=O)N2CCCN(S(=O)(=O)c3ccc(OC)c(C)c3)CC2)cc1C returned VDR inhibitor -4%.
Cc1ccc2cc(C#N)c(NCCCNC(=O)C3CCCO3)nc2c1 (stereo not drawn) was read as VDR inhibitor -12%.
For COC(=O)C1=C(Nc2ccccc2NC(=O)c2ccccc2C(=O)O)CSC1 the results were VDR inhibitor -20%.
Screening Cc1ccc(NC(=O)Nc2cccn(Cc3c(F)cccc3Cl)c2=O)cc1 returned VDR inhibitor -7%.
`COc1ccccc1N1CCN(C(CNC(=O)C(=O)NCc2cccnc2)c2cccnc2)CC1` (stereo not drawn) gave VDR inhibitor -2%.
C=C(C)Cn1c(CCNC(=O)CC)nc2ccccc21 was read as VDR inhibitor 5%.
CCN(Cc1ccccc1)C(=O)Cn1c(=O)n(-c2ccc(Cl)c(Cl)c2)c(=O)c2c(C)c(C(=O)N(C)C)sc21 was read as VDR inhibitor 7%.
Screening CN1CCN(C(c2ccccc2Cl)c2sc3nc(-c4ccco4)nn3c2O)CC1 (stereo not drawn) returned VDR inhibitor -2%.
COc1ccc(-c2noc(CCCC(=O)NCCc3ccccc3)n2)cc1OC was read as VDR inhibitor 3%.
`CCOP(=O)(/C(C#N)=C(\C)O)c1ccccc1` (stereo not drawn) gave VDR inhibitor -14%.
For CCOc1ccccc1C=NN1CCCCCC1 the results were VDR inhibitor 1%.
Screening O=C(NCCC1=CCCCC1)c1ccc2c(c1)N(Cc1ccc(F)cc1)C(=O)c1ccccc1S2(=O)=O returned VDR inhibitor 0%.
Screening COCCSc1ccccc1C(=O)NCc1ccc2c(c1)OCO2 returned VDR inhibitor -20%.
For CC(=O)Nc1ccc(N=Nc2ccccc2)cc1 the results were VDR inhibitor -3%.
Screening O=c1[nH]c2cccc(F)c2n2cccc12 returned VDR inhibitor 0%.
O=c1cc(O)cc(/C=C/c2ccc(O)c(O)c2)o1 was read as VDR inhibitor inconclusive.
Screening CCc1sc(C(=O)NCCCn2ccnc2)cc1Br returned VDR inhibitor -26%.
COc1cccc(N=NC2C(=O)N(C(N)=S)N=C2C)c1 (stereo not drawn) was read as VDR inhibitor 12%.
Screening CCN(CC)C(=O)Cn1nnc(-c2ccc(S(C)(=O)=O)cc2)n1 returned VDR inhibitor -18%.
Screening COc1ccc(N(CC(=O)NC2CCCC2)S(=O)(=O)c2c(C)[nH]c(=O)[nH]c2=O)cc1 returned VDR inhibitor 0%.
O=C(CC1C(=O)NCCN1C(=O)Nc1ccccc1)Nc1cc(Cl)cc(Cl)c1 (stereo not drawn) was read as VDR inhibitor -15%.
Cc1ccc(-c2cnc(N)n2C)cc1C was read as VDR inhibitor 8%.
Screening CCc1cccc(C)c1NC(=O)COC(=O)CNC(=O)c1cccs1 returned VDR inhibitor 1%.
For CCOC(=O)NC(=O)COC(=O)CCCSc1nc2ccccc2s1 the results were VDR inhibitor 24%.
For CCOC(=O)c1oc2ccccc2c1NC(=O)c1cccc(OC)c1OC the results were VDR inhibitor 16%.
`COc1ccc(/C=C(/NC(=O)c2ccc(C)cc2)C(=O)NCc2ccncc2)cc1` gave VDR inhibitor -16%.
For O=S(=O)(c1ccc(OCC(O)CN2CCc3ccccc3C2)cc1)N1CCOCC1 (stereo not drawn) the results were VDR inhibitor -6%.
Cc1onc(-c2ccccc2)c1C(=O)N1CCN(C/C=C/c2ccccc2)CC1 was read as VDR inhibitor -5%.
COc1ccc(CNC(=O)C2CCN(S(=O)(=O)c3cn(C)cn3)CC2)cc1 was read as VDR inhibitor 0%.
COc1ccc(S(=O)(=O)N2CCN(c3ccccc3)CC2)cc1C(=O)N1CCCC1 was read as VDR inhibitor -7%.
Screening CCc1ccc2[nH]cc(C(=O)OCCOC)c(=O)c2c1 returned VDR inhibitor -11%.
`O=C(/C=C/c1ccc(Cl)cc1Cl)Nc1ccncc1` gave VDR inhibitor 19%.
`CCOC(=O)N1CCN(C(=S)NC(=O)c2ccc(Br)cc2)CC1` gave VDR inhibitor -2%.
For C/C(=N\Nc1cccc(Cl)c1)C1(C)N(O)C(C)(C)C(c2ccco2)=[N+]1[O-] (stereo not drawn) the results were VDR inhibitor -21%.
For CC(C)Cn1c(N)c(S(=O)(=O)c2cccs2)c2nc3ccccc3nc21 the results were VDR inhibitor -6%.
Screening CC(C)C(=O)Nc1ccccc1C(=O)OCc1cc(=O)n2nc(C3CC3)sc2n1 returned VDR inhibitor 14%.
`CCOc1ccc(S(=O)(=O)N2CCCC(C(=O)Nc3cccc(C)c3)C2)cc1` (stereo not drawn) gave VDR inhibitor -6%.
`CCOc1cccc(CN(C)CC2CCCN(CCc3ccc(Cl)cc3)C2)c1O` (stereo not drawn) gave VDR inhibitor -12%.
`NC(=O)c1ccc(N2CCCCC2)c(N2C(=O)CCC2=O)c1` gave VDR inhibitor 5%.
O=C(NCc1ccccc1F)C(=O)NCC(c1cccs1)S(=O)(=O)c1cccs1 (stereo not drawn) was read as VDR inhibitor 8%.
Screening CC(C)(C)OC(=O)NCCCCCc1cn([C@@H](CO)C(=O)NCCCCCCCCCCC(=O)N2CCN(C(=O)OC(C)(C)C)CC2)nn1 returned VDR inhibitor -8%.
`CC1CC1C(=O)N(CCC1=CCCCC1)c1c(N)n(Cc2ccccc2)c(=O)[nH]c1=O` (stereo not drawn) gave VDR inhibitor -9%.
`Cc1cc(NC(=O)COC(=O)C2CCN(S(=O)(=O)c3cccc(Cl)c3Cl)CC2)no1` gave VDR inhibitor 2%.
For CCOc1ccc(NCC(=O)Nc2ccc(C)cc2C)cc1 the results were VDR inhibitor 10%.
For COc1ccc2oc(C(F)(F)C(F)F)cc(=O)c2c1 the results were VDR inhibitor -4%.

Only part of the results is shown; count on the stated rates, not on these rows.
